Screening data from PubChem.
MITF inhib: inhibitors of MITF, primary screen, MITF inhibitor project, cell-based, luminescence. inhibition, % (concentration not given with the values). actives 0.28% (n = 37,000). TRPM1 promoter luciferase, 24 h;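 active means most replicates at 85% or more, or half of them and the mean; inconclusive means half reach 85% but not the mean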;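 further: human melanocyte line stably carrying TRPM1 promoter luciferase reporter; 0% = vehicle wells and 100% = a positive control; the first replicate is given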
PD-1 reverse act: activators reversing PD-1 mediated T-cell inhibition, primary screen, luminescence, primary human CD4 T cells, PD-L1 beads; CellTiter-Glo 96 h; 29,000 tested, under 10 active; activation, % (test concentration not listed);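 active means replicate mean of 50% or more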;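 further: 0% = median vehicle wells and 100% = positive control; 100 nL library stock added to about 50 µL; numbers are from one replicate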
Hedgehog inh: Hedgehog pathway signaling inhibitors, primary screen, luminescence, Shh-LIGHT2 cells, Gli-luciferase. Shh-LIGHT2 Gli-luciferase reporter, 30 h. inhibition, % (no concentration beside the values). actives 2.1% (n = 22,000);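 active means replicate mean of 65% or more; inconclusive means mean lower but half the replicates past it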;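 further: pathway switched on by Shh-conditioned medium diluted 1 in 25 in low serum; 100 nL library stock added to about 40 µL; 0% = median of neutral wells and 100% = positive control level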
YB-1 expr inh: inhibitors of YB-1 gene expression, primary screen, cell-based, fluorescence. actives 0.37% (n = 30,000). AID 434959, 2010. delta delta Cp (YB-1 minus CDIP) (no concentration beside the values). U2OS, qRT-PCR YB-1 vs CDIP delta delta Cp, 16 h; stronger effect = higher value; zero = DMSO, each unit about twofold;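 active means delta delta Cp rounded down to an integer at or above 3, about 3 SD of DMSO wells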;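 further: higher means less YB-1 transcript or more CDIP transcript relative to DMSO; stock transfer was 100 nL into about 100 µL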
An asterisk follows results filed as active; ? = inconclusive; · = no result given. Not all compounds are listed; count on the stated rates, not on these rows.

structure | MITF inhib | PD-1 reverse act | Hedgehog inh | YB-1 expr inh
COc1ccc(S(=O)(=O)N(CCO)c2ccccc2CN(C)C/C=C/c2ccc(Cl)cc2)cc1 | 51.5 | -11.9 | 47.2 | -1.75
Cc1noc(C)c1NC(=O)N(C)C[C@@H]1Oc2ccc(NC(=O)CCN3CCOCC3)cc2CC(=O)N([C@H](C)CO)C[C@@H]1C | 7.4 | · | · | -0.519
Cc1noc(C)c1S(=O)(=O)N(C)C[C@H]1Oc2ccc(NC(=O)NC3CCCCC3)cc2CC(=O)N([C@@H](C)CO)C[C@@H]1C | -14.1 | -0.4 | · | -0.0945
COc1ccc(C)cc1S(=O)(=O)NCc1ccncc1 | 10.0 | -0.4 | · | ·
COc1ccc(NC(=O)Nc2ccc3c(c2)CC(=O)N([C@@H](C)CO)C[C@H](C)[C@H](CN(C)C(=O)NC2CCCCC2)O3)cc1 | -2.9 | · | -6.4 | 0.206
Cc1ccc2c(c1)-c1c(ssc1=S)C(C)(C)N2C(=O)C(C)C | 11.3 | 1.1 | · | 0.0527
C[C@H]1CN([C@@H](C)CO)C(=O)c2cc(N(C)C)ccc2O[C@@H]1CN(C)CC1CCCCC1 | -7.4 | -0.2 | -2.4 | -0.0388
Cc1noc(C)c1S(=O)(=O)N(C)C[C@@H]1Oc2ccc(NC(=O)Nc3cccc4ccccc34)cc2CC(=O)N([C@H](C)CO)C[C@@H]1C | 8.6 | · | -22.7 | 0.0879
CC(C)c1ccc(S(=O)(=O)CC#N)cc1 | -19.8 | -9.1 | -39.6 | 0.476
C[C@H](CO)N1C[C@H](C)[C@@H](CN(C)C(=O)Nc2ccc(F)cc2)Oc2ccc(NS(=O)(=O)c3cn(C)cn3)cc2C1=O | -9.9 | -0.1 | -0.9 | 0.555
COc1ccc(CN(C)C[C@@H]2Oc3ccc(NS(=O)(=O)c4cn(C)cn4)cc3CC(=O)N([C@@H](C)CO)C[C@@H]2C)cc1 | -11.5 | 1.3 | · | -0.0773
C[C@@H]1CN([C@H](C)CO)C(=O)Cc2cc(NS(=O)(=O)c3ccc(Cl)cc3)ccc2O[C@@H]1CN(C)S(=O)(=O)c1cccs1 | -0.9 | -0.9 | -53.5 | 0.0778
C=CCn1c(-c2nonc2NC(=O)CC)nc2ccccc21 | 11.8 | -0.5 | -14.3 | 0.0055
CCn1c(=O)c2c(n3c(SCC(N)=O)nnc13)-c1ccccc1CC21CCCCC1 | 34.3 | -5.1 | 11.5 | -0.0643
C[C@H](CO)N1C[C@H](C)[C@H](CN(C)CC2CCCCC2)Oc2c(NC(=O)C3CCOCC3)cccc2C1=O | -3.6 | 0.2 | -72.7 | -0.296
O=c1oc(Cl)c(Cl)c2ccccc12 | 46.1 | · | 78.6* | 0.187
C[C@@H]1CCCCO[C@@H](CN(C)Cc2ccc(C(F)(F)F)cc2)[C@@H](C)CN([C@H](C)CO)C(=O)c2cc(NC(=O)C3CCCCC3)ccc2O1 | 18.0 | -6.0 | -35.4 | -0.0684
COc1ccc(NC(=O)N(C)C[C@@H]2Oc3ccc(NC(=O)Cc4cn(C)c5ccccc45)cc3C(=O)N([C@@H](C)CO)C[C@@H]2C)cc1 | 10.6 | -0.7 | · | 0.0713
C[C@H]1CN([C@@H](C)CO)C(=O)c2cc(NS(C)(=O)=O)ccc2O[C@@H]1CN(C)S(=O)(=O)c1ccc(Cl)cc1 | -7.1 | -1.2 | · | 0.318
C[C@@H]1CN([C@H](C)CO)C(=O)Cc2cc(NS(=O)(=O)c3cccs3)ccc2O[C@H]1CN(C)S(=O)(=O)c1ccc(F)cc1 | -10.5 | · | -17.5 | 0.104
COc1ccc(NC(=O)Nc2cccc3c2O[C@@H](CN(C)Cc2ccc(C(=O)Nc4ccccc4N)cc2)[C@@H](C)CN([C@@H](C)CO)C3=O)cc1 | 11.6 | -3.5 | · | -0.196
COc1ccc(S(=O)(=O)Nc2ccc3c(c2)C(=O)N([C@H](C)CO)C[C@H](C)[C@@H](CN(C)S(=O)(=O)c2ccccc2)O3)cc1 | -6.6 | -0.3 | 6.6 | -0.376
C[C@@H]1CN([C@@H](C)CO)C(=O)c2cc(NC(=O)Cc3ccccc3)ccc2O[C@H]1CN(C)S(=O)(=O)c1ccccc1 | -0.6 | -0.4 | 18.6 | 0.188
COc1ccc(S(=O)(=O)N(C)C[C@H]2Oc3c(NC(=O)Nc4ccc5c(c4)OCO5)cccc3C(=O)N([C@H](C)CO)C[C@H]2C)cc1 | 1.9 | · | -2.2 | 0.514
COc1cc(CO)c(CC(=O)NN)cc1OC | 16.0 | -0.4 | 7.9 | 0.334
C[C@@H]1CN([C@H](C)CO)C(=O)c2cc(NC(=O)Nc3ccc(F)cc3)ccc2O[C@H]1CN(C)S(=O)(=O)c1ccc(Cl)cc1 | -44.2 | -2.3 | 1.6 | -0.0319
COc1ccccc1C(=O)Nc1ccccc1C(=O)NCc1ccco1 | -3.5 | -2.3 | · | ·
Cc1ccc(S(=O)(=O)Nc2cccc3c2O[C@H](CN(C)S(=O)(=O)c2cn(C)cn2)[C@@H](C)CN([C@H](C)CO)C3=O)cc1 | -7.4 | 3.4 | -18.8 | 0.267
C[C@@H]1CN([C@H](C)CO)C(=O)c2cccc(NC(=O)NC3CCCCC3)c2O[C@H]1CN(C)S(=O)(=O)c1cn(C)cn1 | -9.4 | 0.1 | -12.9 | -0.263
COc1cc(SC)ccc1-c1nc2ccncc2[nH]1 | -10.5 | 6.6 | 25.0 | 0.709
Cc1noc(C)c1NC(=O)Nc1ccc2c(c1)C(=O)N([C@@H](C)CO)C[C@H](C)[C@H](CN(C)Cc1ccc3c(c1)OCO3)O2 | -4.2 | 0.4 | · | 0.168
CCOC(=O)c1nn(-c2ccc(OC)cc2)c(C(=O)OCC)c1NC(=O)C1CCCCC1 | -3.2 | -2.1 | 21.8 | -0.975
C/C(=C/CO)CC[C@@H]1[C@@](C)(O)CCC2C(C)(C)CCC[C@]21C (some centres undefined) | 9.9 | -3.2 | -36.9 | -0.282
Cc1ccc(S(=O)(=O)N(C)C[C@H]2Oc3ccc(N(C)C)cc3C(=O)N([C@@H](C)CO)C[C@H]2C)cc1 | 2.1 | 1.2 | 6.4 | 0.513
CCC(Oc1nc2ccccc2nc1-c1ccccc1NC(C)=O)C(=O)c1ccccc1 (centres undefined) | 27.0 | -0.7 | · | ·
CC(C)=CCc1c(O[C@@H]2O[C@H](CO)[C@@H](O)[C@H](O)[C@H]2O)cc(O)c2c1O[C@H](c1ccc(O)cc1)CC2=O | -2.0 | -1.3 | -10.5 | -0.321
Cc1cnn(CCCNC(=O)c2cc(-c3cccnc3)nc3ccc(Cl)cc23)c1 | 21.2 | -4.1 | · | ·
COc1ccc(CN(C)C[C@@H]2Oc3ccc(NS(=O)(=O)c4c(C)noc4C)cc3CC(=O)N([C@H](C)CO)C[C@H]2C)cc1 | -0.1 | -0.5 | -6.9 | 0.0736
C[C@H]1CN([C@@H](C)CO)C(=O)Cc2cc(NS(=O)(=O)c3ccccc3)ccc2O[C@H]1CN(C)Cc1ccc(Oc2ccccc2)cc1 | 26.6 | · | -33.4 | 0.0116
C[C@H]1CN([C@@H](C)CO)C(=O)c2cccc(N(C)C)c2O[C@@H]1CN(C)Cc1ccc2c(c1)OCO2 | -6.0 | · | -56.8 | -0.00192
Nc1nc(SCC(=O)Nc2ccc(Br)cc2Cl)n[nH]1 | -23.8 | -0.5 | · | ·
COc1ccc(S(=O)(=O)Nc2cccc3c2O[C@H](CN(C)C(=O)Nc2ccc4c(c2)OCO4)[C@H](C)CN([C@H](C)CO)C3=O)cc1 | -7.5 | -2.1 | -2.3 | 0.301
C[C@H]1CN([C@@H](C)CO)C(=O)c2cccc(NS(=O)(=O)c3ccc(F)cc3)c2O[C@@H]1CN(C)S(=O)(=O)c1ccc(Cl)cc1 | -11.5 | -0.2 | 30.9 | 0.172
C=CCn1c(=O)c2ccccc2n2nnc(C(=O)OCC)c12 | -20.0 | -0.5 | -8.0 | -0.377
C[C@@H]1CN([C@H](C)CO)C(=O)Cc2cc(NS(=O)(=O)c3cccs3)ccc2O[C@H]1CN(C)C | -12.1 | 0.8 | -20.3 | 0.317

Two of the compounds above, as labelled records:
CC(C)=CCc1c(O[C@@H]2O[C@H](CO)[C@@H](O)[C@H](O)[C@H]2O)cc(O)c2c1O[C@H](c1ccc(O)cc1)CC2=O
  MITF inhib: -2.0 | PD-1 reverse act: -1.3 | Hedgehog inh: -10.5 | YB-1 expr inh: -0.321

Cc1cnn(CCCNC(=O)c2cc(-c3cccnc3)nc3ccc(Cl)cc23)c1
  MITF inhib: 21.2 | PD-1 reverse act: -4.1 | Hedgehog inh: · | YB-1 expr inh: ·

Next compounds:
structure | MITF inhib | PD-1 reverse act | Hedgehog inh | YB-1 expr inh
O=C(Nc1ccc(Oc2ccccc2)cc1)C1CC(=O)n2ncnc2N1 (centres undefined) | -22.0 | 2.9 | · | ·
Cc1nnc(SCC(=O)c2c(C)[nH]c3ccccc23)s1 | -12.3 | 0.0 | · | ·
C[C@@H]1CCCCO[C@H](CN(C)S(=O)(=O)c2ccc(F)cc2)[C@@H](C)CN([C@H](C)CO)C(=O)c2cc(NC(=O)c3ccncc3)ccc2O1 | -3.3 | · | -11.6 | 0.298
C[C@@H]1CCCCO[C@@H](CN(C)C(=O)Nc2ccc(F)cc2)[C@@H](C)CN([C@H](C)CO)C(=O)c2cc(NC(=O)Nc3cccc4ccccc34)ccc2O1 | -19.8 | -2.2 | -11.0 | 0.103
CC(C)NC(=O)Nc1ccc2c(c1)C(=O)N([C@H](C)CO)C[C@H](C)[C@@H](CN(C)S(=O)(=O)c1cccs1)OCCCC[C@@H](C)O2 | 5.1 | · | -15.1 | 0.338
COC(=O)c1ccccc1NC(=O)c1ccc(F)cc1 | -1.5 | -0.4 | 14.8 | -0.456
Cc1coc(C)c1C(=O)CC1(O)C(=O)N(Cc2ccccc2)c2ccccc21 (centres undefined) | 40.9 | 1.7 | · | ·
COC(=O)c1ccc(NC(=O)CN2CCC(C(N)=O)(N3CCCCC3)CC2)cc1 | -1.5 | 1.7 | · | ·
C[C@@H]1CN([C@@H](C)CO)C(=O)c2cc(NC(=O)c3ccncc3)ccc2O[C@H]1CN(C)Cc1ccc(Oc2ccccc2)cc1 | -2.5 | · | · | -0.106
C[C@@H]1CN([C@@H](C)CO)C(=O)c2cc(NC(=O)Cn3cnnn3)ccc2O[C@@H]1CN(C)CC1CC1 | 0.7 | 0.3 | 6.9 | -0.209
CCCCCC[C@@H]([C@@H](C)O)n1cnc2c(N)ncnc21 | -4.2 | 1.3 | ? | 0.101
COc1ccc(S(=O)(=O)N(C)C[C@@H]2Oc3c(NC(=O)C4CCCCC4)cccc3C(=O)N([C@H](C)CO)C[C@H]2C)cc1 | -6.2 | 1.2 | 12.8 | -0.391
CN1CCc2c(c3ccccc3n2Cc2ccccc2)C1 | 15.7 | · | 25.4 | -0.524
COC1=CC(=O)CC(C)C12Oc1cc(OC)cc(O)c1C2=O (centres undefined) | 1.7 | 1.4 | 16.6 | -0.556
COc1cccc(Cc2nnc(-c3ccc(-c4cccs4)s3)o2)c1 | 1.8 | -0.3 | 59.8 | 0.104
C[C@@H]1CN([C@H](C)CO)C(=O)Cc2cc(NC(=O)CCC(F)(F)F)ccc2O[C@H]1CN(C)S(=O)(=O)c1ccc(Cl)cc1 | -8.4 | 0.7 | 39.6 | -0.337
C[C@@H]1CN([C@@H](C)CO)C(=O)c2cc(NS(=O)(=O)c3cn(C)cn3)ccc2O[C@@H]1CN(C)Cc1ccc(C(=O)O)cc1 | 2.7 | 2.1 | -34.9 | 0.46
COc1ccc([N+](=O)[O-])cc1NC(=O)CN(c1ccc(Cl)cc1C)S(C)(=O)=O | 21.9 | 1.4 | · | ·
Cc1ccc(-c2noc(CN(C(=O)c3ccc([N+](=O)[O-])cc3)C(C)C)n2)cc1 | 16.4 | 0.5 | · | ·
C[C@H](CO)N1C[C@H](C)[C@H](CN(C)Cc2ccc(C(=O)Nc3ccccc3N)cc2)Oc2ccc(NS(=O)(=O)c3ccc(Cl)cc3)cc2CC1=O | 43.3 | -0.7 | · | -0.291
Cc1noc(C)c1S(=O)(=O)Nc1ccc2c(c1)CC(=O)N([C@H](C)CO)C[C@@H](C)[C@@H](CN(C)C)O2 | -9.6 | 1.2 | -3.9 | 0.0778
C[C@H]1CN([C@@H](C)CO)C(=O)c2cc(NS(=O)(=O)c3cn(C)cn3)ccc2O[C@H]1CN(C)C(=O)Nc1cccc2ccccc12 | 7.0 | 1.3 | -12.7 | -0.256
Brc1c(Br)c(Br)c2n[nH]nc2c1Br | 1.1 | 4.5 | 49.0 | 0.092
Cc1ccc(N(C(C)C(=O)Nc2cccc(Cl)c2C)S(C)(=O)=O)cc1C (centres undefined) | 0.0 | -2.9 | · | ·
C[C@@H]1CN([C@@H](C)CO)C(=O)c2cc(NC(=O)Cn3cnnn3)ccc2O[C@H]1CN(C)Cc1ccc(C(=O)O)cc1 | -2.5 | 1.3 | -4.6 | -0.541
CCCn1c2ccc(C)cc2c2nnc(SCCN3CCOCC3)nc21 | 17.4 | 0.0 | 22.4 | 0.322
